KCNQ2 pot: KCNQ2 (rat) channel potentiation. CHO-K1 KCNQ2, FluxOR thallium flux fluorescence; stronger effect = higher value. B-score at 10 µM. 0.54% of 310,000 active. AID 2239;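 active means fluorescence ratio B-score at least 3 SD of library B-scores, with initial fluorescence B-score within 3 SD, cut at about 5.3 in these data; same plate scores as AID 2156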;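 further: B-score of peak minus minimum over baseline fluorescence ratio after K+ and Tl+ stimulus; positive B-score means potentiation of KCNQ2 with more thallium influx and brighter signal; only the inactives scoring about 0 or higher are listed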
Target sequence (O88943 whole entry, looked up): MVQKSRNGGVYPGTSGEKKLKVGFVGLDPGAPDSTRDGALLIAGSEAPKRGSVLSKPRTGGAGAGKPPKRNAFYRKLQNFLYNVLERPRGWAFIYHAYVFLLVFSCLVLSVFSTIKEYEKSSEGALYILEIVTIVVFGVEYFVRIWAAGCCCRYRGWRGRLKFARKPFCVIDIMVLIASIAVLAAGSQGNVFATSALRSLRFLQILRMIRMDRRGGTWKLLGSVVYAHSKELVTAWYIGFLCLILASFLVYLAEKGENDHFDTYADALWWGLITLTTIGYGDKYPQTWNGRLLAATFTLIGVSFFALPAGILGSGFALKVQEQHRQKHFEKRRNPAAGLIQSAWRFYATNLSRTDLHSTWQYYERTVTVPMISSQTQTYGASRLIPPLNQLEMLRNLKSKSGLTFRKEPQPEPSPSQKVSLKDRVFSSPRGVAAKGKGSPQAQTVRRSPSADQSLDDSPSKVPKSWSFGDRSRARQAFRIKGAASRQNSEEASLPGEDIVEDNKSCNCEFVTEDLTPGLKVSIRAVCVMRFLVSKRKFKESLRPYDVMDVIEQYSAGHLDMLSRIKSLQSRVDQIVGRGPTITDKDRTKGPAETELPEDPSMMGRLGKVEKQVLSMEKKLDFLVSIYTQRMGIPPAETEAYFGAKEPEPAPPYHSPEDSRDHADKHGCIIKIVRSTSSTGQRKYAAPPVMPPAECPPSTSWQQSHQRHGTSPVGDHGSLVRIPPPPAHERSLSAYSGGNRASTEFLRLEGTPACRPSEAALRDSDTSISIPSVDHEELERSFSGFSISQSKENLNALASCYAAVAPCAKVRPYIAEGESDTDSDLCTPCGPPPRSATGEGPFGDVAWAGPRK
KCNQ2 pot baseline: further read-out of KCNQ2 pot, marked with its call; B-score; compound at 10 µM; measured here: initial fluorescence intensity artifact check;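 brightness before thallium and not channel activity; 0 = typical well and far values either way flag optical interference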
An asterisk follows results filed as active; x = no result given. Only part of the results is shown, so the mix of outcomes need not match the whole.

Results follow in this order: KCNQ2 pot | KCNQ2 pot baseline
> CCN(CC)S(=O)(=O)c1cccc(C(=O)N/N=C/c2ccc(OC)c(O)c2)c1
  0.41 | -3.1
> NC1=NC[C@@H](Cc2ccc(O)cc2)N1CCc1cccc(F)c1
  0.04 | -0.02
> CCOc1ccc(CCNC(=O)CCn2cccc2)cc1OCC
  0.17 | -2.7
> Cc1[nH]c2ccccc2c1/C=N/NC(=O)CCC(=O)NCc1ccccc1
  0.15 | -0.48
> O=C(Nn1cnc2ccccc2c1=O)C1CCCCC1
  0.4 | -1.6
> CCOC(=O)/C(CCC[N+](C)(CC)CC)=N\O
  0.64 | 2.5
> Cc1cc(SCC(=O)Nc2cccc(S(=O)(=O)N3CCOCC3)c2)nc2ccccc12
  1.9 | -0.52
> CN(CCC#N)C(=O)CSc1nnc(-c2c[nH]c3ccccc23)o1
  0.26 | 0.12
> Cc1ccc(C(=O)NCC(=O)N/N=C/c2cccs2)cc1C
  0.07 | -0.05
> Cc1cc(C)n2nc(C)c(-c3ccccc3)c2n1
  0.07 | -0.96
> C=CCN(C(=O)C1=NN(C2CCS(=O)(=O)C2)C(=O)CC1)c1nc(-c2ccc([N+](=O)[O-])cc2)cs1 (configuration not stated)
  0.81 | -0.65
> O=C(c1ccccc1[N+](=O)[O-])N1N=C(c2ccccc2)CC1(O)C(F)(F)F (configuration not stated)
  1.2 | 0.33
> CCN(CC)S(=O)(=O)c1ccc(Cl)c(C(=O)NCCN2CCOCC2)c1
  0.31 | -1.6
> CC(C)CCn1nnnc1C(c1ccccc1)N1CCN(C)CC1 (configuration not stated)
  0.03 | 0.24
> O=C1CSC(c2cccc([N+](=O)[O-])c2)N1c1c(F)cccc1F (configuration not stated)
  1.1 | -1.1
> COc1ccc(NC(=O)Cc2ccc(C)cc2)c([N+](=O)[O-])c1
  1.2 | 1.6
> Cc1cc(NC(=O)COC(=O)C2CCC(=O)N2)c([N+](=O)[O-])cc1C (configuration not stated)
  1.4 | 0.86
> Cc1ccn(CC(=O)N2N=C(C(F)F)CC2(O)C(F)F)n1 (configuration not stated)
  0.89 | 0.43
> CCn1cc(C(=O)NCc2ccc3c(c2)OCO3)c(=O)c2cc(F)c(N3CCN(C)CC3)cc21
  0.45 | -1.8
> COc1cc(NC(=O)C(=O)NCCN(C)C)c(OC)cc1Cl
  2.3 | -0.24

New compounds follow:
Results follow in this order: KCNQ2 pot | KCNQ2 pot baseline
> CC(=O)c1c(C)n(-c2ccc(Cl)cc2)c2ccc(O)cc12
  0.87 | 0
> Cc1cc([N+](=O)[O-])cc(/C=N/n2c(C)nc3ccccc3c2=O)c1O
  2.1 | -0.4
> CCCC1COC(Cn2cncn2)(c2ccc(C)cc2)O1 (configuration not stated)
  1.1 | -0.39
> COc1ccc(S(=O)(=O)n2c([N+](=O)[O-])cnc2C)cc1OC
  0.54 | 4
> O=C1OC2CCC1(c1ccccc1)C2 (configuration not stated)
  1.2 | -1.4
> CCOc1ccc(N2C(=O)C(c3ccccc3)=C(c3nc4ccccc4s3)C2NC(C)=O)cc1 (configuration not stated)
  0.75 | 0.34
> COc1cccc(-n2nnc3c(=O)n(Cc4ccc(C)cc4)cnc32)c1
  1.7 | -1.5
> CCNC(=S)Nc1ccc(OCC)cc1
  1.3 | 1.4
> O=C(NCCN1CCN(C(=O)c2ccc(F)cc2)CC1)C(=O)NCc1ccccc1
  0.13 | -0.03
> CCCc1nc2c(nnn2Cc2ccccc2F)c(=O)[nH]1
  0.41 | -1.4
> COc1cc2c(cc1OC)CN(C(=O)CN1CCN(S(=O)(=O)c3ccccc3)CC1)CC2
  0.05 | -1.8
> COc1ccc(CCNC(=O)CCc2cn(C)c3ccccc23)c(OC)c1OC
  1.7 | 0.7
> O=C(O)C1=C[C@H](c2coc3ccccc3c2=O)C[C@H](OCCCCO)O1
  0.02 | 0.95
> O=C(NNS(=O)(=O)c1ccc(F)cc1)c1cc(Cl)ccc1O
  0.52 | 1
> Cc1ccc(S(=O)(=O)NC(=O)c2cc(C)n(-c3ccc(N(C)C)cc3)c2C)cc1
  0.92 | -1.1
> CCOC(CNc1c([N+](=O)[O-])c(=O)n(C)c(=O)n1C)OCC
  0.77 | 1.4
> COc1ccc(C(=O)N=C2SC3CS(=O)(=O)CC3N2Cc2ccc(OC)c(OC)c2)cc1 (configuration not stated)
  0.8 | -0.66
> C=CCNc1nc(Nc2ccc([N+](=O)[O-])cc2)nc(OCC)n1
  0.34 | -0.64
> CCOC(=O)C1=C(c2ccccc2)NC(=S)NC1c1ccc(Cl)cc1 (configuration not stated)
  1 | 0.1
> CC1Cc2ccccc2N1C(=O)C12CCC(C)(C(=O)C1)C2(C)C (configuration not stated)
  1.6 | 0.08

3 entries from above, with values ahead of the structure.
KCNQ2 pot,KCNQ2 pot baseline,Structure
0.87,0,CC(=O)c1c(C)n(-c2ccc(Cl)cc2)c2ccc(O)cc12
1.7,0.7,COc1ccc(CCNC(=O)CCc2cn(C)c3ccccc23)c(OC)c1OC
1.3,1.4,CCNC(=S)Nc1ccc(OCC)cc1

Other results follow.
Results follow in this order: KCNQ2 pot | KCNQ2 pot baseline
> O=C(NCCO)c1nc(NCCO)c2ccccc2n1
  2.2 | 1.1
> Cc1ccc(NC(=O)COC(=O)COc2cccc3c2OC(C)(C)C3)cc1S(=O)(=O)N1CCOCC1
  1.8 | 0
> COc1cccc(OCC(O)CN2CCc3ccccc3C2)c1 (configuration not stated)
  0.35 | 0
> O=C(Nc1ccc(Cl)cc1F)c1cc(S(=O)(=O)N2CCCCC2)ccc1F
  0.12 | 0.01
> O=C(COc1ccc(S(=O)(=O)NC2CCCCC2)cc1Cl)NCc1ccc2c(c1)OCO2
  0.2 | 0.66
> NS(=O)(=O)c1ccc(CCNc2nc(CN3CCCCC3)nc3sc4c(c23)CCC4)cc1
  0.72 | 0.01
> O=C(CCS(=O)(=O)c1ccc(Br)cc1)NC1CCCC1
  0.12 | -0.44
> CCN(CC)CCNS(=O)(=O)c1ccc2[nH]cc(C(=O)O)c(=O)c2c1
  0.37 | 0.27
> Nc1nc(NC(=O)Cc2ccccc2)nn1-c1ccccc1
  0.33 | -0.52
> COc1ccc(/C=N/NC(=O)Cn2cc(C(F)(F)F)ccc2=O)cc1
  1.1 | 0.23
> O=C(CN1CCN(S(=O)(=O)c2ccccc2)CC1)Nc1ccccc1Cl
  0.52 | -0.68
> COc1cc2c(cc1OC)C(C)N(C(=S)NC(=O)c1ccccc1)CC2 (configuration not stated)
  1.4 | -0.16
> CCOC(=O)N1CCN(C(=O)CSc2ccc3nnc(-c4cccnc4)n3n2)CC1
  2.4 | 0.12
> CCn1ncc(CN2CCN(C(=O)Nc3ccccc3C(=O)OC)CC2)c1C
  0.97 | -0.12
> CCc1nc(C)c(C(=O)N2CCCC(C(=O)Nc3cccc(-c4cccc(C)c4)c3)C2)o1 (configuration not stated)
  0.91 | -2.8
> c1ccc2[nH]c(-c3ccnc4ccccc34)nc2c1
  1.3 | x
> Nc1cc(N2CCCC2)ccc1[N+](=O)[O-]
  0.25 | -0.09
> Cc1ccc(Sc2c([N+](=O)[O-])ncn2C)cc1
  1 | -0.41
> N#Cc1ccc(-c2ccc(OCC(=O)NCCc3ccccc3)cc2)cc1
  1.8 | -0.74
> COc1ccc(-c2nc(N)nc(C(F)(F)F)c2-c2csc(C)n2)c(O)c1
  1.3 | -0.8

The listing continues.
Results follow in this order: KCNQ2 pot | KCNQ2 pot baseline
> COc1ccccc1-c1cc(C(=O)N/N=C/c2ccc(C)o2)c2ccccc2n1
  1.2 | 0.96
> CCCSc1nsc(SCCC)c1C#N
  1.9 | 2.5
> Cn1c(SCC(=O)NNC(=O)c2ccccc2)nnc1C1CC1
  0.38 | 0.63
> CCC(CO)NCc1ccc(-c2ccccc2)cc1 (configuration not stated)
  1.1 | -1.6
> Cc1ccc(CSCC(=O)N2CCCC2)cc1
  1 | 0.18
> COCc1cc(C)[nH]c(=O)c1C#N
  1 | 1.7
> O=C(CSc1nnc2ccc(-c3ccccn3)nn12)NCCc1ccccc1
  2.3 | -0.76
> CC1CCc2nc(NC(=O)Cc3cccs3)sc2C1 (configuration not stated)
  0.48 | 0.14
> CC1(C)CC(=O)C=C(NCCCN2CCCC2=O)C1
  0.48 | 0.01
> COC(=O)c1cc(=O)c2c(C)nc(C(Cl)(Cl)Cl)nc2[nH]1
  2.7 | -1.2
> C=CCO/N=C/C1=C(O)C(C(=O)OC)C(C)(C)CC1=O (configuration not stated)
  0.36 | 0.7
> CCOc1cccc(NC(=O)C2CC(=O)N(C)C(=Nc3cccc(F)c3)S2)c1 (configuration not stated)
  6.5* | 0.46*
> COC(=O)c1ccc2c(=O)n(-c3ccccc3F)c(=S)[nH]c2c1
  0.83 | -2.8
> O=C(O)c1cc2n(n1)C(C(F)(F)F)CC(c1ccco1)N2 (configuration not stated)
  0.07 | -0.06
> CC(=O)c1cc(Cc2csc(C(C)=O)c2)cs1
  1.1 | 2.3
> COc1ccc(N(CC(=O)N2CCN(Cc3ccccc3)CC2)S(C)(=O)=O)cc1OC
  2 | -1.7
> CCn1cc(CCCC(=O)NCc2cccnc2)c2ccccc21
  0.1 | 1.2
> CC(C)(C)C(=O)Nc1sc2c(c1-c1nc3ccccc3[nH]1)CCCC2
  1.9 | -0.96
> CN1CCc2c(sc(NC(=O)c3ccc(C(=O)c4ccccc4)cc3)c2C(N)=O)C1
  0.42 | -0.54
> Cc1cc(/C=C2\C(=N)N3N=C(S(C)(=O)=O)SC3=NC2=O)c(C)n1Cc1ccccc1
  1.2 | -1.9

Next structures
Results follow in this order: KCNQ2 pot | KCNQ2 pot baseline
> Cc1cccc(NC(=O)COC(=O)c2cccs2)c1C
  0.78 | -0.19
> COc1cc(Cl)c(C)cc1NC(=O)COC(=O)/C=C/c1c(C)nn(C2CCS(=O)(=O)C2)c1Cl (configuration not stated)
  0.27 | -0.33
> CCc1ccc(CNC(=O)CCCC(=O)n2nc(C)c3ccccc32)cc1
  0.06 | -0.77
> O=C(CCc1nc2ccccc2c(=O)[nH]1)NCC(=O)Nc1ccc(F)c(F)c1
  0.56 | 1.4
> CCC(c1nnnn1C1CCCC1)N1CCN(c2ccccc2F)CC1 (configuration not stated)
  0.09 | 0.02
> Cn1c(=O)[nH]c2sc3c(c2c1=O)CC(C)(C)OC3
  1.4 | -1.5
> C[n+]1c2n(c3ccccc31)N=C(c1ccccc1)CS2
  0.08 | x
> CNC(=O)c1cc(C(=O)c2ccccc2C(F)(F)F)c[nH]1
  0.85 | -0.04
> Cc1ccc(S(C)(=O)=O)cc1C(=O)N1CC(C(N)=O)Oc2ccccc21 (configuration not stated)
  0.34 | 3.9
> O=C(O)c1c(Cl)c(Cl)c(Cl)c(Cl)c1C(=O)N1CCOCC1
  0.31 | 0.83
> O=C(CCCCCN1C(=O)CCC1=O)Nc1ccc(Br)cc1F
  0.24 | -0.01
> CCOC(=O)c1c(NC(=O)C(=O)N/N=C/c2ccc(O)c(OC)c2)sc2c1CCCCC2
  0.92 | 0.78
> O=C1C2CCCN2C(=O)N1CCCCN1CCN(c2ccc(F)cc2)CC1 (configuration not stated)
  0.49 | -0.61
> COc1cc2c(N3CCOCC3)cc(O)c(CC(=O)Nc3ccccc3)c2cc1OC
  1.3 | -1.3
> O=S(=O)(NCc1ccccc1Cl)c1ccc(-n2cccn2)cc1
  0.23 | 0.62
> CC(C)OC(=O)c1cc2c(=O)[nH]c(C(Cl)(Cl)Cl)nc2o1
  0.97 | 0.93
> COc1ccc(N2CCN(C(=S)NC(=O)c3cccs3)CC2)c([N+](=O)[O-])c1
  3.8 | -2.1
> CN(c1ccc(O)cc1)S(=O)(=O)c1ccc2ccccc2c1
  0.65 | -2
> CCN(CC(=O)NC1CCS(=O)(=O)C1)S(=O)(=O)c1c(C)c(C)cc(C)c1C (configuration not stated)
  0.21 | -2.2
> CN(C)c1cccc2c(S(=O)(=O)NCc3ccc(S(N)(=O)=O)cc3)cccc12
  0.26 | 0.26

Looked up one by one from above:
Results follow in this order: KCNQ2 pot | KCNQ2 pot baseline
> NC1=NC[C@@H](Cc2ccc(O)cc2)N1CCc1cccc(F)c1
  0.04 | -0.02
> CCCc1nc2c(nnn2Cc2ccccc2F)c(=O)[nH]1
  0.41 | -1.4
> Nc1nc(NC(=O)Cc2ccccc2)nn1-c1ccccc1
  0.33 | -0.52
> O=C(CCS(=O)(=O)c1ccc(Br)cc1)NC1CCCC1
  0.12 | -0.44
> COCc1cc(C)[nH]c(=O)c1C#N
  1 | 1.7

(next part)
Results follow in this order: KCNQ2 pot | KCNQ2 pot baseline
> COc1ccccc1C(=O)NC(=O)COC(=O)CNC(=O)c1ccc(Cl)cc1Cl
  1.2 | 0.51
> Cc1cccc(-c2nc(CS(=O)CC(=O)NCc3cccs3)c(C)o2)c1 (configuration not stated)
  1.1 | -1.1
> Cc1cccc(C)c1NC(=O)CN(C)C(=O)c1ccc(NS(=O)(=O)c2ccc3[nH]c(=O)[nH]c3c2)cc1
  1.1 | -0.12
> CC1(C)Cc2c(cnn2-c2ccccc2)C(NC(=O)CCCn2cncn2)C1 (configuration not stated)
  0.23 | -0.26
> COc1cc(/C=N\NC(C)=O)ccc1OC/C=C/c1ccccc1
  0.52 | -0.36
> CC(=O)Nc1ccc(C(=O)OCC(=O)Nc2c(F)cccc2F)cc1
  0.05 | 0.64
> COc1ccc(C(=O)Nc2nncs2)cc1S(=O)(=O)N1CCOCC1
  0.73 | 1.9
> Nc1cc(=O)[nH]c(SCC(=O)Nc2cccnc2Cl)n1
  1.2 | -2.2
> CC(=O)OCn1nnc2ccccc2c1=O
  1.8 | -1.6
> Cc1cc(NC(=O)c2ccc(Cl)cc2Cl)no1
  0.02 | 0.71
> COC(=O)CSc1nsc(SCC(=O)OC)n1
  0.7 | -2
> COc1cc(SC)ccc1C(=O)N1CCN(c2ccccc2F)CC1
  0.64 | 0.99
> COC(=O)NC(=S)N1CCOCC1
  0.45 | 0.51
> Cc1[nH]n(-c2ccc(Cl)cc2)c(=O)c1/C=N/c1nnc(-c2ccccc2)s1
  20* | 3.4*
> COc1cccc(Nc2nnc(SCn3nnc4ccccc4c3=O)s2)c1
  0.5 | -0.52

Source: PubChem BioAssay
